Screens (PubChem)
Mtb hypoxia inh: PubChem AID 1159583. M. tuberculosis hypoxia-regulated fluorescent reporter, fluorescence. fluorescence inhibition, % (no concentration beside the values). actives 0.1% (n = 300,000);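 active means 35 to 45% if threefold the growth effect, above 45% if 1.5-fold the growth effect; inactive means the rest, general growth blockers included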;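 further: wells of about 50 µL received 100 nL stock; 0% = vehicle wells and 100% = reference inhibitor wells; whole bacteria with a GFP reporter of the hypoxia response; strong numbers were not always called active; many hits fall short of the cut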
PrP UTR inh: inhibition of PrP 5' UTR reporter expression. actives 0.35% (n = 340,000). inhibition, % (no concentration beside the values). cell-based PrP 5' UTR mRNA reporter, plate reader;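 active means every replicate at 50% or more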;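 further: 0 = median of the neutral control wells; tested in H4 reporter cells; numbers are from one replicate; inactives centre near -14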
Bead autofluor: compound fluorescence in toxin protease inhibitor counterscreen; AID 624483; actives 3.1% (n = 360,000); fluorescence intensity (concentration not given with the values); compound autofluorescence counterscreen, microsphere flow cytometry; active compounds read high;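 active means at least 3 SD above the mean of all compounds, about 16000 in these data; inconclusive means too few beads counted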;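 further: 100 nL of 1 mM stock went into each well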
Sa ugtP lethal: growth inhibition of ugtP-null S. aureus, primary screen, RN4220 ugtP deletion, OD600; AID 1259309, 2017; actives 0.54% (n = 330,000); growth inhibition, % (test concentration not listed); 16 h; some inactives read as strong as hits;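 active means z-score under -3 and OD600 up to 0.15 on both plates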;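 further: plate controls were untreated wells for no effect and antibiotic for full effect; wells of about 80 µL received 100 nL stock; the first replicate is given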
RN4220 kill: growth inhibition of S. aureus RN4220, primary screen, OD600; inhibition, % (no concentration beside the values); actives 0.33% (n = 330,000); AID 1259311, 2017; 16 h;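 active means z-score of -3 or lower and OD600 up to 0.18 on both plates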;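 further: plate controls were untreated cells for no effect and reference antibiotic for full effect; stock transfer was 100 nL into about 80 µL; one replicate is shown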
BJeLR viability: MLPCN primary cell-based screen for lethality selective to Ras in HRASV12 cells; BJeLR (HRASV12) viability, CellTiter-Glo ATP luminescence, 48 h; reference of the scale not given here; inhibition, % (no concentration beside the values); actives 0.17% (n = 300,000); AID 1554, 2009;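 active means replicate mean above 50%; inconclusive means above 50% but judged a plate artefact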;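 further: 50 nL library stock added to about 25 µL; numbers are from one replicate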
Mtb hypoxia inh growth: recorded beside Mtb hypoxia inh, whose call it bears; growth inhibition, %; measured here: M. tuberculosis growth (absorbance);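 0% = vehicle and 100% = reference antibiotic; read after six days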
The depositor's hits bear a star; ? = inconclusive; · = no result given.

SMILES	Mtb hypoxia inh	Mtb hypoxia inh growth	PrP UTR inh	Bead autofluor	Sa ugtP lethal	RN4220 kill	BJeLR viability
O=C(Cn1nnc(-c2ccccc2F)n1)NCCc1ccccc1	1	3	-13	5892	-5	-0.3	6
CCOC(=O)C1C2COc3ccc(OC)cc3C2N2C(=O)CN(Cc3ccc(Cl)cc3)C(=O)[C@@]12C (stereo partly specified)	18	6	·	·	22	9.2	·
Cc1onc(-c2c(Cl)cccc2Cl)c1C(=O)NCC1CCCO1 (stereo unspecified)	16	7	-25	10953	8	7.3	-10
CCN1C(=O)C2C(c3ccc(C)cc3)N3C(=O)N(c4ccc(C(F)(F)F)cc4)C(=O)[C@@]3(CC)C2C1=O (stereo partly specified)	-4	-1	·	·	1	4.1	·
COc1ccccc1C(=O)NCCC(=O)NCC(c1ccco1)N1CCCCC1 (stereo unspecified)	-2	-11	-22	4391	11	1.2	-10
CC1=NN(C(C#N)c2c(C)nn(Cc3ccccc3)c2C)C(C)(C)C1 (stereo unspecified)	-12	5	-21	2672	3	3.1	·
CCn1c(SCC(=O)Nc2ccc(C)cc2)nc2nc3c(cc2c1=O)COC(C)(C)C3	-5	11	-1	3239	-1	-2.3	-14
Cc1cc(/C=C(\C#N)C(=O)NCc2ccco2)c(C)n1C1CCCC1	4	5	-50	5626	-8	-2.0	1
CCOC(=O)c1ccccc1NC(=O)COC(=O)CN1C(=O)C2CC=CCC2C1=O (stereo unspecified)	0	-3	-34	5829	-1	-1.1	-1
Cc1ccc(NC(=O)CN2C(=O)NC3(CCCc4ccccc43)C2=O)c(Cl)c1 (stereo unspecified)	-7	15	1	3501	-6	0.4	·
CC(C)(C)c1ccc(OCC(=O)Nc2ccc3c4c(cccc24)C(=O)NC3=O)cc1	6	11	-49	4852	2	15	-9
Cc1ccccc1OCC(=O)NS(=O)(=O)c1ccc(Cl)cc1	-7	-7	0	?	-6	4.0	-3
Cc1ccc(OCCC(=O)OCC(=O)Nc2c(C)nn(-c3ccccc3)c2C)cc1	6	1	-24	·	5	4.2	2
Cn1c(N)c(C(=O)CSc2nnc3n2CCCCC3)c(=O)n(C)c1=O	8	6	-5	3801	8	1.4	·
CCN(c1ccccc1)c1nc(=O)c2cccnc2s1	23	4	-32	4181	12	4.1	4
Cc1ccccc1C(=O)Nc1cccc(C(=O)NN=Cc2ccc3c(c2)OCO3)c1	7	-7	·	·	10	2.6	·
COc1ccc(C)cc1S(=O)(=O)NC(C)C(=O)Nc1ccc2c(c1)OCO2 (stereo unspecified)	-10	-2	-8	5563	-1	1.6	-9
COC(=O)c1c(NS(=O)(=O)Cc2ccccc2)sc2c1CCCC2	16	-3	7	10968	-3	24	1
Cc1cc(C)c(NC(=O)CNC(=O)c2ccccc2OCc2c(C)noc2C)c(C)c1	-3	0	-13	?	6	2.8	1
O=C(NC1CCCCC1)c1ccc(S(=O)(=O)N2CCCCC2)cc1	13	4	-2	3393	3	1.8	-15
O=C(Nc1ccccc1N1CCN(C(=O)c2ccccc2)CC1)c1ccco1	5	-4	-16	3698	-1	4.3	-4
NS(=O)(=O)c1ccc(NC(=O)COC(=O)C2(c3ccccc3F)CCCC2)cc1	11	14	7	1905	9	4.6	7
COC(=O)c1cc(NC(=O)c2ccc(F)cc2)cc(C(=O)OC)c1	10	1	-7	4305	5	2.0	4
CCOC(=O)CSc1nnc(CNC(=O)c2ccccc2OC)n1-c1ccc(OC)cc1	-3	-1	3	11341	11	5.0	6
CC(CCCC(C)(C)O)CC1C2=C(CCCC2=O)OC2=C1C(=O)CCC2 (stereo unspecified)	6	21	-20	4139	5	7.4	2

Carrying on.
SMILES	Mtb hypoxia inh	Mtb hypoxia inh growth	PrP UTR inh	Bead autofluor	Sa ugtP lethal	RN4220 kill	BJeLR viability
COc1ccc(NC(=O)CN2C(=O)NC3(CCCC3)C2=O)cc1Cl	13	3	-23	3666	8	-2.1	-2
COc1ccc(-c2csc(N(CC(C)C)C(=O)c3ccco3)n2)cc1	8	6	-17	3341	42	-9.4	-1
Cn1nccc1C(=O)Nc1ccccc1C(=O)O	·	·	-4	5001	-5	7.5	2
FC(F)Oc1ccccc1/C=N/n1cnc2ccccc21	·	·	-18	2378	·	·	-5
COc1cccc(OCC(O)CN2CCN(c3ccc(F)cc3)CC2)c1 (stereo unspecified)	-9	7	-14	3790	-2	2.1	-2
Clc1ccccc1-c1ccc(/C=N/Nc2nncc(-c3ccccc3)n2)o1	·	·	-19	3293	·	·	1
COc1ccccc1C(=O)N1CCC(N2CCN(c3ccccc3OC)CC2)CC1	14	15	0	3656	1	2.4	-1
NC(=O)C1CCN(C(=O)c2ccc(F)c(S(=O)(=O)N3CCOCC3)c2)CC1	20	6	-27	3753	0	-1.1	·
Cc1cccc(OCCCc2c(C)n[nH]c2C)c1	3	4	-8	22053*	3	10	5
CC(C)CC(=O)NS(=O)(=O)c1ccc(NC(=O)c2ccco2)cc1	3	7	-35	4882	1	5.0	-2
OC(COc1ccc(Cl)cc1Cl)CN1CCc2ccccc2C1 (stereo unspecified)	-5	-1	-11	?	-7	-2.3	-1
Clc1ccc(OCc2nnnn2-c2ccccc2)cc1	-3	7	-21	1984	-1	0.6	0
Brc1ccccc1C1=Nn2c(nnc2-c2ccccc2)SC1	6	-1	-7	2410	-11	7.7	3
C=COCCNC(=O)C(=O)NCC(C)C	·	·	-7	2447	8	0.3	3
CCN(Cc1ccccc1)C(=O)C1CCN(Cc2ccc(OC)c(OC)c2OC)CC1	4	12	-12	22911*	2	6.0	8
CN(C)c1nc(Nc2ccc(Cl)c(Cl)c2)nc(N(C)C)n1	·	·	-10	3638	·	·	-13
NNC(=O)CN1CCCc2ccccc21	-7	-3	-3	4757	-6	-3.2	9
O=C(CN1C(=O)c2cccc3cccc1c23)Nc1ccc2c(c1)OCO2	11	9	-4	9101	6	4.7	-3
O=c1c2cnn(-c3ccccc3)c2nnn1/N=C/c1cccnc1	·	·	-11	3211	·	·	0
CC(=O)NCCn1c(C)cc2ccccc21	1	14	-16	5295	-6	-13	-4
CCOc1ccc(OCC)c(NC(=O)C2CCN(c3ncccn3)CC2)c1	0	12	-1	22945*	-2	4.3	-1
Cc1cc(C)n(CCC(=O)N2c3ccccc3CC2C)n1 (stereo unspecified)	2	-8	-18	·	3	0.0	4
Cc1nn(-c2ccc(Br)cc2)c(=O)c2ccccc12	-5	-5	-87	3890	11	-1.6	3
CCOC(=O)N1CCN(c2cc(=O)n(C3CCCCC3)c(=O)[nH]2)CC1	-1	10	-8	2947	0	-8.0	-7
CC(=NOCC(=O)OCC(=O)N(Cc1ccccc1)C(C)(C)C)c1ccc2c(c1)OCO2	5	-4	·	·	12	-2.6	·

One compound at a time (already shown). Screens in order: Mtb hypoxia inh	Mtb hypoxia inh growth	PrP UTR inh	Bead autofluor	Sa ugtP lethal	RN4220 kill	BJeLR viability
NS(=O)(=O)c1ccc(NC(=O)COC(=O)C2(c3ccccc3F)CCCC2)cc1 is listed with 11	14	7	1905	9	4.6	7
Brc1ccccc1C1=Nn2c(nnc2-c2ccccc2)SC1 is listed with 6	-1	-7	2410	-11	7.7	3
Cn1nccc1C(=O)Nc1ccccc1C(=O)O is listed with ·	·	-4	5001	-5	7.5	2
Cc1cc(/C=C(\C#N)C(=O)NCc2ccco2)c(C)n1C1CCCC1 is listed with 4	5	-50	5626	-8	-2.0	1
Clc1ccccc1-c1ccc(/C=N/Nc2nncc(-c3ccccc3)n2)o1 is listed with ·	·	-19	3293	·	·	1

Next section
SMILES	Mtb hypoxia inh	Mtb hypoxia inh growth	PrP UTR inh	Bead autofluor	Sa ugtP lethal	RN4220 kill	BJeLR viability
CC(=O)Nc1nc(C)c(S(N)(=O)=O)s1	·	·	-15	2703	2	-0.1	5
O=[N+]([O-])c1ccc(C2CCCCC2=NO)c([N+](=O)[O-])c1 (stereo unspecified)	1	12	·	·	3	6.5	·
O=C(CSc1nnc(Nc2ccccc2F)s1)NC(=O)CN1CCCC1=O	14	2	-28	3781	0	13	·
Cc1ccc(Cl)cc1NC(=O)C1CC(=O)N(C(C)C)C1 (stereo unspecified)	7	-8	-22	3930	5	1.6	-1
O=C(N/N=C/c1cccs1)c1cc(-c2ccc(Cl)s2)[nH]n1	·	·	-23	6118	·	·	-3
CCCC(=O)N(c1ccc(OCC)cc1)S(=O)(=O)c1ccc2c3c(cccc13)C(=O)N2C	5	0	-9	6091	-32	0.2	4
COc1ccc2c(c1OC)CN(C)CCc1cc3c(cc1C(=O)C2)OCO3	-7	-1	-4	3550	4	6.4	-3
CCCCn1c(SCc2nc3ccccc3s2)nc2cc(S(N)(=O)=O)ccc21	7	5	-36	10664	-4	3.8	-11
O=C1CSC(c2cccnc2)N1CCc1ccccn1 (stereo unspecified)	-2	1	-14	4173	0	3.0	3
Cc1cc(C)c(OCC(=O)NN=Cc2ccc3c(c2)OCO3)c(C)c1	0	2	·	·	5	8.4	·
Cc1ccc(C(C(=O)NCc2ccco2)N(C(=O)CNC(=O)c2cccs2)c2c(C)cccc2C)cc1 (stereo unspecified)	7	-12	-9	2019	-1	-0.7	0
Cc1cc(C=NNC(=O)c2ccsc2)c(C)n1-c1cnccn1	6	-1	·	·	1	2.1	·
COC(=O)C1=C(c2ccccc2)CC2CCC1N2C(=O)NCc1ccco1 (stereo unspecified)	13	13	·	·	-2	7.7	·
Nc1ccc(Nc2nc(-c3ccncc3)cs2)cc1	1	-2	-64	6907	-12	2.1	0
CCC(C)c1ccccc1NC(=O)COC(=O)C1=NN(c2ccccc2)C(=O)CC1 (stereo unspecified)	19	8	-24	4129	2	4.0	·
COc1ccc(-n2c(N)c(C#N)c3ccc([N+](=O)[O-])cc3c2=O)cc1	13	2	-31	2030	-3	4.3	-13
Cn1c(SCc2nc3ccccc3[nH]2)nnc1-c1cccnc1	6	15	-39	20145*	-13	7.9	6
C/C(Sc1nnc(Cc2ccccc2)o1)=C(/O)c1ccccc1	9	15	-12	12875	1	4.7	-8
CCOc1ccc(NC(=O)CN(C)C(=O)c2ccc3[nH]c4c(c3c2)CC(C)CC4)cc1OCC (stereo unspecified)	3	5	-17	5958	2	-1.2	-4
Cc1cc(C)c(-c2csc(NC(=O)c3cc([N+](=O)[O-])ccc3N3CCOCC3)n2)c(C)c1	0	4	-17	2572	22	-3.8	5
Cc1ccc(CNC(=O)C2CC(c3cccc(F)c3)=NO2)cc1 (stereo unspecified)	12	13	-28	3610	0	5.1	-12
OCc1nc(CO)n(Cc2ccccc2)n1	3	3	-16	19983*	13	4.9	2
Cc1ccccc1NC(=O)Cn1cnc2c(oc3nc4c(cc32)CCCC4)c1=O	-1	5	-18	5786	5	-0.4	6
Cc1cc(=O)oc(C)c1C(=O)NCC(C)NC(=O)c1c(C)cc(=O)oc1C (stereo unspecified)	2	3	-11	3184	-4	-1.3	-4
CC1(c2ccccc2)NC(=O)N(CC(=O)Nc2cccc(C#N)c2)C1=O (stereo unspecified)	15	8	-10	3934	-9	0.8	-5

Next section
SMILES	Mtb hypoxia inh	Mtb hypoxia inh growth	PrP UTR inh	Bead autofluor	Sa ugtP lethal	RN4220 kill	BJeLR viability
CN(C)c1ccc(C=NS(=O)(=O)c2ccccc2)cc1	10	5	·	·	7	5.3	·
CCCCN1C(=O)C(=O)N(CC(=O)N2CCN(c3ccccc3)CC2)C1=O	9	-8	-23	5649	7	2.5	9
Cc1c(N=Cc2c(O)n(C)c(=O)c3ccccc23)c(=O)n(-c2ccccc2)n1C	6	9	-22	7445	2	2.9	2
CCN(Cc1ccccc1)S(=O)(=O)c1cc2c3c(c1)CCN3C(=O)CC2	-1	6	-9	6726	-1	2.8	-2
Cc1ccc(S(=O)(=O)Nc2cccc(Cl)c2)cc1NC(=O)c1cccnc1	-5	13	-8	3863	4	-8.9	7
CCOc1ccc(NC(=O)CN2CCN(CC(=O)Nc3ccc(C(N)=O)cc3)CC2)cc1	-3	-6	-17	4242	0	2.2	12
O=C(NC1CCCCC1)C(=O)c1c[nH]c2ccccc12	·	·	-47	4133	·	·	-5
CCOc1cc(S(=O)(=O)N2CCCC2)ccc1Cl	3	6	-11	7807	3	1.4	-10
O=[N+]([O-])c1ccc(Cl)cc1NN=Cc1ccncc1	7	-1	·	·	-1	1.6	·

Reprinted at random: 2 compounds from above
SMILES	Mtb hypoxia inh	Mtb hypoxia inh growth	PrP UTR inh	Bead autofluor	Sa ugtP lethal	RN4220 kill	BJeLR viability
CCN(Cc1ccccc1)S(=O)(=O)c1cc2c3c(c1)CCN3C(=O)CC2	-1	6	-9	6726	-1	2.8	-2
CN(C)c1ccc(C=NS(=O)(=O)c2ccccc2)cc1	10	5	·	·	7	5.3	·
